KCNQ2 inh: KCNQ2 potassium channel inhibitors, primary screen, cell-based, CHO-K1, FluxOR thallium flux, B-score (AID 2156); Potassium voltage-gated channel subfamily KQT member 2 (Rattus norvegicus), O88943; 20 min; hits give low values; only compounds with negative scores are shown here; some inactives read as strong as hits; B-score at 10 µM; actives 1.1% (n = 310,000);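 active = fluorescence ratio B-score at most minus 3 library SDs, with starting brightness B-score within 2 library SDs, cut at about -5.5 in these data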
Target sequence (O88943 whole entry, looked up): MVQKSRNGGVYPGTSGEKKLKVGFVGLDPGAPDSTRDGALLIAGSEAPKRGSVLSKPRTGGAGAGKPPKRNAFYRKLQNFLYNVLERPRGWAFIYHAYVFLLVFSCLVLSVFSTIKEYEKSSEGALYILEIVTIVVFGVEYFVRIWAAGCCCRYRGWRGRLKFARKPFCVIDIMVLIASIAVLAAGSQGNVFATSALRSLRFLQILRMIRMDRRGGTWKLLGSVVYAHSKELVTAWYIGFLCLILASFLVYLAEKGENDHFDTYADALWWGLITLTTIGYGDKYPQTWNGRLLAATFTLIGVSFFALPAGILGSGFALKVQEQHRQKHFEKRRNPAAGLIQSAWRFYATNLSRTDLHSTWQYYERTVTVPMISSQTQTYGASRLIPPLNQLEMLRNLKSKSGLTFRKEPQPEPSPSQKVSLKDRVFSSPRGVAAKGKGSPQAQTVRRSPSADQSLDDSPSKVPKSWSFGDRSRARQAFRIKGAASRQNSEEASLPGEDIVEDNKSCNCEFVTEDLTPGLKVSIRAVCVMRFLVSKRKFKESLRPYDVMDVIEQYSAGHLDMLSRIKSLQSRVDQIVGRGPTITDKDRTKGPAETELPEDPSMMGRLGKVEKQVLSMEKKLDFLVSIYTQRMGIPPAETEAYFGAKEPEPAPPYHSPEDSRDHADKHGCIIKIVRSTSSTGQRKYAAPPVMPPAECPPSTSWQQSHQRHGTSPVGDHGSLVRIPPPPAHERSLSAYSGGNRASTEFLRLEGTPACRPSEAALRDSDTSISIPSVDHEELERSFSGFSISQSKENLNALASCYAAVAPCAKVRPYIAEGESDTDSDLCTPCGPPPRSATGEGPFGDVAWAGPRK
KCNQ2 inh baseline: also measured in KCNQ2 inh; calls as there; B-score; measured here: initial fluorescence intensity artifact check;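 brightness before thallium and not channel activity; 0 = typical well and far values either way flag optical interference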
* marks the source's active call; other numbers are inactive results; i = inactive.

SMILES	KCNQ2 inh	KCNQ2 inh baseline
CC(=O)c1cccc(NC(=O)C(OC(=O)c2cccs2)c2ccccc2)c1 (stereo not drawn)	i	-3.1
CN(C)c1cccc(N(C)C)c1CNC(=O)NC(=O)c1c(F)cccc1F	i	2.9
CCN(CC)S(=O)(=O)c1ccc(=O)[nH]c1	i	0.44
CNc1c(NS(=O)(=O)c2ccc(F)cc2)c(=O)oc2ccccc12	i	-0.88
FCCCOc1ccc(-c2nccc(-c3ccc(Br)cc3)n2)cc1	i	-0.08
Cc1ccc(C2OC(=O)c3ccccc32)cc1 (stereo not drawn)	i	0.34
COc1cccc(CN(C)C(=O)/C=C/c2ccc(S(=O)(=O)N3CCCCCC3)cc2)c1	i	1.1
Cc1onc(-c2ccccc2Cl)c1C(=O)N1CCc2ccccc2C1	i	1.3
CCOC(=O)c1c(S(=O)(=O)N(C)Cc2ccccc2)c(C)n(C)c1C	i	0.57
CN(CC(=O)Nc1c(Cl)cccc1Cl)C(=O)c1ccccc1SCC(=O)N1CCCC1	i	-1.2
COc1ccc(NC(=O)Nc2nnc(C(C)(C)C)s2)cc1	i	0.11
COc1ccc(OC)c(NC(=O)CSCc2cnn(-c3ccccc3)c2-n2cccc2)c1	i	1.2
CN(C(=O)Nc1ccc(Cl)c(Cl)c1)c1ccccc1C(=O)O	i	-0.79
CC1(C)CC(=O)C(CC2=C(O)CC(C)(C)CC2=O)C(=O)C1	i	-2.2
CC1=NN(c2ccccc2)C(=O)/C1=C/c1cc2cc(C)ccc2nc1N1CCCCC1	i	-1
COc1ccc(C)cc1S(=O)(=O)N(CC(=O)NCc1ccco1)c1ccc(C)cc1	i	1.9
O=C(CC1C(=O)NCCN1Cc1cccc(Oc2ccccc2)c1)NCCCn1cccn1 (stereo not drawn)	i	-0.34
COc1ccc(C2/C=C\CN(Cc3ccc(N(C)C)cc3)CC(=O)N2Cc2ccc(F)cc2)cc1 (stereo not drawn)	i	0.52
CCc1ccccc1Nc1ccc(C(=O)O)cc1N	i	-0.05
Cc1ccccc1-n1c(=O)cc(N2CCc3ccccc32)[nH]c1=O	i	0.28

Next part; it opens with the two that closed the last part.
SMILES	KCNQ2 inh	KCNQ2 inh baseline
CCc1ccccc1Nc1ccc(C(=O)O)cc1N	i	-0.05
Cc1ccccc1-n1c(=O)cc(N2CCc3ccccc32)[nH]c1=O	i	0.28
Cc1ccccc1OCC(=O)NNC(=O)c1ccc(-c2ccccc2)cc1	i	0.18
O=C(CNS(=O)(=O)c1ccc(Cl)cc1)NNC(=O)c1cccnc1	i	2.6
O=C(NCC1CCCO1)c1ccc2ccccc2n1 (stereo not drawn)	i	-0.46
CCOCCCN(C(=O)c1snc(C(N)=O)c1N)C(C(=O)NC1CCCC1)c1ccc(O)cc1 (stereo not drawn)	i	-0.62
CCOC(=O)N1CCC(n2c(SCC(=O)N3CCC(C)CC3)nc3ccccc3c2=O)CC1	-7.8*	-1.1*
O=C(CNC(=O)c1ccccc1)NCC(=O)OCC(=O)c1ccc(F)cc1	i	-0.03
COc1cccc(-c2cc(C(=O)NCC3CCCO3)on2)c1 (stereo not drawn)	i	1
O=C(Cn1cc(C(=O)c2ccco2)c2ccccc21)NCc1ccco1	i	0.12
Cc1ccc(C)c(NC(=O)CN(C)C(=O)c2ccc(-c3ccc(Cl)cc3)o2)c1	i	0.45
CN(C)C(=O)COC(=O)[C@H](Cc1ccccc1)NC(=O)c1ccco1	i	-0.4
CCOc1ccc(NC(=O)C2CC(=O)N3CCCN=C3S2)cc1 (stereo not drawn)	i	0.62
CCc1nnc(NC(=O)CSc2nnc(C(C)NC(=O)c3ccccc3F)n2C)s1 (stereo not drawn)	i	0.89
Cc1ccc(C(=O)C(O)C(c2ccc(C)cc2)N2CCCCC2)cc1 (stereo not drawn)	i	0.38
CC(OC(=O)c1cccs1)C(=O)NCc1ccccc1 (stereo not drawn)	i	1.4
O=C(CS(=O)(=O)c1ccccc1Cl)N1CCOCC1	i	-0.2
COc1ccc(NC(=O)c2ccccc2Cl)c(NC(=O)c2ccco2)c1	i	-0.02
Cc1ccc2[nH]c(=O)c3cc(C(=O)N(C)Cc4ccco4)sc3c2c1	i	0.67
Cc1ccc2c(c1)N(CC(=O)N1CCCCC1)C(=O)C(C)O2 (stereo not drawn)	i	0.02
CN(C(=O)Cn1nnc(-c2cccnc2)n1)C1CCCCC1	i	1.3
CC1=NN(c2ccccc2)C(=O)/C1=C\N(O)c1ccccc1	i	-0.21
CCC(C)(C)NC(=O)CN(Cc1ccccc1Cl)C(=O)CCC(=O)Nc1cc(C)ccn1	i	0.13
COc1ccc([C@@H]2COc3c(ccc4c3C=CC(C)(C)O4)C2)c(OC)c1	-6.3*	0.79*
CCOC(=O)c1cnc(SSc2ncc(C(=O)OCC)c(N)n2)nc1N	i	-0.1
CCC(CC)C(=O)OCC(=O)Nc1cccc([N+](=O)[O-])c1	i	0.45
O=C(Oc1cccc(-n2cnnn2)c1)c1ccco1	i	0.51
COc1ccc(C(C(=O)NCC2CCCO2)N(C(=O)CNC(=O)c2ccco2)c2ccccc2)cc1OC (stereo not drawn)	i	-0.58
Cc1cc(C(=O)NCc2ccc3c(c2)OCO3)c(C)o1	i	-0.07
CCN(CC)CCNC(=O)c1ccc(NC(=O)c2ccc3c(c2)CCC3)cc1	i	-1.2
COCCN1C(=O)CC(NNC(=O)c2ccc(S(=O)(=O)N3CCCC3)cc2)C1=O (stereo not drawn)	i	1.3
COc1ccc(C(=O)Nc2cccnc2)cc1OC	i	-0.46
CS(=O)(=O)N(CC(=O)NCc1ccccc1)Cc1ccc(Cl)cc1	i	0.57
O=C(CCCc1ccccc1)NCc1ccccn1	i	0.28
CC(C)Cc1nc2sc3c(c2c(=O)n1N)CC(C)(C)OC3	i	-1.5
CC(C)(Oc1ccc(Cl)cc1)C(=O)N(Cc1ccccc1)c1ccccn1	i	-0.04
COc1ccc(C(=O)NNC(=O)CSc2nnc(C(C)C)n2C)cc1	i	1.3
COc1ccc(NC(=O)c2ccc(OC)cc2)cc1	i	-0.03
Cc1ccc(S(=O)(=O)N(C)C)cc1NC(=O)CN1C(=O)NC(Cc2ccccc2)C1=O (stereo not drawn)	i	-1.1
CN(Cc1ccccc1F)C(=O)CCCNC(=O)c1ccc(Cl)cc1	i	-0.77
Cc1nnc(N/N=C/c2ccccc2O)n1N	i	1.7
O=C1c2ccccc2CN1c1ccccc1	i	1.8

As a working copy, part of the list above:
SMILES	KCNQ2 inh	KCNQ2 inh baseline
CCOC(=O)c1cnc(SSc2ncc(C(=O)OCC)c(N)n2)nc1N	i	-0.1
CCC(CC)C(=O)OCC(=O)Nc1cccc([N+](=O)[O-])c1	i	0.45
O=C(Oc1cccc(-n2cnnn2)c1)c1ccco1	i	0.51
COc1ccc(C(C(=O)NCC2CCCO2)N(C(=O)CNC(=O)c2ccco2)c2ccccc2)cc1OC (stereo not drawn)	i	-0.58
Cc1cc(C(=O)NCc2ccc3c(c2)OCO3)c(C)o1	i	-0.07
CCN(CC)CCNC(=O)c1ccc(NC(=O)c2ccc3c(c2)CCC3)cc1	i	-1.2
COCCN1C(=O)CC(NNC(=O)c2ccc(S(=O)(=O)N3CCCC3)cc2)C1=O (stereo not drawn)	i	1.3
COc1ccc(C(=O)Nc2cccnc2)cc1OC	i	-0.46
CS(=O)(=O)N(CC(=O)NCc1ccccc1)Cc1ccc(Cl)cc1	i	0.57
O=C(CCCc1ccccc1)NCc1ccccn1	i	0.28
CC(C)Cc1nc2sc3c(c2c(=O)n1N)CC(C)(C)OC3	i	-1.5
CC(C)(Oc1ccc(Cl)cc1)C(=O)N(Cc1ccccc1)c1ccccn1	i	-0.04
COc1ccc(C(=O)NNC(=O)CSc2nnc(C(C)C)n2C)cc1	i	1.3
COc1ccc(NC(=O)c2ccc(OC)cc2)cc1	i	-0.03
Cc1ccc(S(=O)(=O)N(C)C)cc1NC(=O)CN1C(=O)NC(Cc2ccccc2)C1=O (stereo not drawn)	i	-1.1

(more compounds)
SMILES	KCNQ2 inh	KCNQ2 inh baseline
O=C(c1cccs1)N(Cc1cccc(Cl)c1)C1CCS(=O)(=O)C1 (stereo not drawn)	i	1.7
CCN(CCCNc1ncnc2nc[nH]c12)c1cccc(C)c1	i	1.7
CN(C)c1ccc(NS(=O)(=O)c2cc(Cl)ccc2Cl)cc1	i	1.4
Cc1cccn2c(CNCCCn3ncc4ccccc43)c(C(=O)N3CCCCC3)nc12	i	1.2
O=C1C2CC=C(Cl)CC2C(=O)N1CC1Cc2ccccc2CO1 (stereo not drawn)	i	1.7
COc1ccc(Cl)cc1NC(=O)[C@@H]1CCCN1C(=O)c1cccs1	i	0.93
CCOC(=O)N1CCN(C(=O)c2ccc3c(c2)N(Cc2cc(C)ccc2C)C(=O)c2ccccc2S3=O)CC1 (stereo not drawn)	i	-0.59
CCOC(=O)c1sc(Nc2nc3c(F)cccc3s2)cc1C	i	-1.3
N#C/C(=N\Nc1ccccc1Cl)C(=O)c1ccccc1	i	0.6
CC1OC(O[C@H]2CC[C@]3(C)C4C=C[C@]56OC[C@@]7(CC[C@@H](C)[C@H](C)C75)[C@H](O)C[C@@]6(C)[C@]4(C)CC[C@H]3C2(C)C)C(OC2OC(CO)C(O)C(O)C2OC2OCC(O)C(O)C2O)C(O)C1O (stereo partly drawn)	i	44
Cc1ccccc1NC(=S)N(CCc1c(C)[nH]c2ccc(F)cc12)Cc1ccncc1	i	-2.4
CCOC(=O)c1cc(C)n(Cc2ccccc2)c1C	i	1.3
Cc1nc2ccccc2c(C)c1C(=O)c1ccc(F)cc1	i	1.6
O=C(CSc1nc2ccccc2c(=O)n1-c1ccc(F)cc1F)c1c[nH]c2ccccc12	i	1.9
COc1ccc(NC(=O)c2cc(=O)c3ccccc3o2)cc1Cl	i	0.15
CC1CCN(S(=O)(=O)c2ccc(S(=O)(=O)NCc3ccco3)cc2)CC1	i	-0.26
CCCCC1(CC(=O)OCC)C(=O)N(c2ccccc2)N(c2ccccc2)C1=O	i	-0.42
O=C(CCn1cccc1)N1CCc2ccccc21	i	-0.33
CCC(C)OC(=O)C1C(c2ccccc2)C(C(=O)O)C1c1ccccc1 (stereo not drawn)	i	-0.68
Cc1cccc(C)c1OCc1nc2ccccc2[nH]1	-5.7*	-0.72*
O=c1c(Cl)c(NCc2ccc(F)cc2Cl)cnn1C12CC3CC(CC(C3)C1)C2	i	0.53
O=C(c1nn2c(C(F)(F)F)cc(-c3ccccc3)nc2c1Cl)N1CCOCC1	i	1.3
O=C(NC1CCN(Cc2ccccc2)CC1)c1cccc(S(=O)(=O)Nc2ccc(Br)cc2)c1	i	0.98
COCCN(C(=O)CCC(=O)Nc1cc(C)on1)C(C(=O)NC1CCCC1)c1ccccc1C (stereo not drawn)	i	1.5
COc1ccc(NC(=O)c2sccc2-n2cccc2)cc1	i	1.2
Cc1nc(-c2ccccn2)nc(SCC(=O)N2CCOCC2)c1Cl	i	0.03
COc1ccc(NC(=O)CCCn2nc(C)c3c(C)n(-c4ccccc4)nc3c2=O)cc1	i	0.38
CCN(CCO)C(=O)C(c1ccccc1)c1ccccc1	i	0.34
COc1cccc(OC)c1C(=O)Nc1ccc2c(c1)CCCN2S(=O)(=O)c1ccc(C)cc1	i	-0.48
O=C(N/C(=C\c1ccc(Br)cc1)C(=O)N1CCOCC1)c1ccccc1Cl	i	0.71
O=C(CCSc1nc(-c2ccco2)cc(C(F)(F)F)n1)N1CCCc2ccccc21	i	2.4
CCN(CC)S(=O)(=O)c1ccc(Cl)c(NC(=O)COc2ccc3c(C)cc(=O)oc3c2)c1	i	1.6
Oc1ccc(Nc2ncnc3scc(-c4ccccc4)c23)cc1	i	2.3
Nc1ccc(C(=O)c2ccccc2C(=O)O)cc1Cl	i	-0.99
CC(=O)c1ccc(N(C(=O)c2ccco2)C(C(=O)NC2CCCC2)c2cccs2)cc1 (stereo not drawn)	i	0.07
Cc1cc(C(=O)CN2CCC(C)CC2)c(C)n1-c1ccc(F)cc1	i	2.8
Cc1ccc(N=C2SCCCN2C(=O)C2=COCCO2)cc1Cl	i	0.63
COc1ccc(Br)cc1/C=N/n1c(C)nc2ccccc2c1=O	i	-0.07
O=C(O)c1cccc(S(=O)(=O)N(Cc2ccccc2)c2ccc(Cl)cc2)c1	i	-0.05
CCOC(=O)/C=C1\NC(C)(C)Cc2cc(OC)c(O)cc21	i	-0.64
Cc1ccc(-n2c(SCC(=O)NCc3ccco3)nc3nc4c(cc3c2=O)COC(C)(C)C4)cc1	i	-0.65
Cc1oc(-c2ccc3c(c2)OCCO3)cc1C(=O)NC(CCC(=O)O)C(=O)O (stereo not drawn)	i	-0.14
Cc1ccc2nc(N(CCN(C)C)C(=O)c3ccc4c(c3)OCCO4)sc2c1	i	1.8
O=C(COC(=O)c1ccc(S(=O)(=O)N2CCOCC2)cc1)NC1CCCC1	i	-1.5
COc1cccc(C(=O)Nc2cccc(C(=O)NC3=NN(c4c(Cl)cc(Cl)cc4Cl)C(=O)C3)c2)c1	i	-1
CCCc1ccc(Oc2cn[nH]c2-c2ccc(O)c(C)c2O)cc1	i	1
CCCN1CCN(C(=O)c2oc3ccccc3c2NC(=O)COc2ccc(OC)cc2)CC1	i	-1.1
O=C(O)C1CCCN(S(=O)(=O)c2ccccc2[N+](=O)[O-])C1 (stereo not drawn)	i	-0.01
Nc1c2c(nn1-c1ccc(F)cc1)CSC2	i	-1.6
O=S(=O)(Nc1ccccn1)c1ccc(Cl)cc1	i	-0.96

Next results:
SMILES	KCNQ2 inh	KCNQ2 inh baseline
COC(=O)CN(C#N)c1nc(NC(C)C)nc(NC(C)C)n1	i	1.2
CCn1cc(C(=O)NCC2CCCO2)c(=O)c2cc(S(=O)(=O)N3CCCCCC3)ccc21 (stereo not drawn)	i	0.02
CCOC(=O)c1cccc(NC(=O)CCn2c(=O)oc3ccccc32)c1	i	-2.7
Cn1c(=O)[nH]c(=O)c2c1nc(OC(=O)c1ccccc1)n2CC(O)COc1ccccc1 (stereo not drawn)	i	0.07
Clc1ccccc1C1=CC(c2ccco2)n2nnnc2N1 (stereo not drawn)	i	-0.1
COc1ccc(C)cc1NC(=O)C1CCN(S(=O)(=O)c2ccc3c(c2)C(C)(C)C(=O)N3C)CC1	i	-1.2

Assay outcomes: PubChem, Johns Hopkins Ion Channel Center

These rows are one share of the data; rates above refer to the full screens.
